Compound activity as filed in PubChem.
MT1-MMP reporter = MT1-MMP gene expression reporter suppression – cell-based, luciferase reporter, luminescence (AID 618). calls from a first round at 10 µM; hits with a dose series show EC50 in µM. MT1-MMP promoter luciferase reporter cells, luminescence. 87,000 tested, 0.62% active;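 active means over half of the reporter light lost at 10 µM or EC50 under 50 µM; inactive means the rest and hits that failed the dose series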;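 further: actives suppress MT1-MMP promoter-driven transcription so potencies describe inhibitors; HT1080 fibrosarcoma cells; overnight exposure; toxic or luciferase-blocking compounds were not removed from the actives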
WNV protease inh = blocks West Nile virus NS2B-NS3 protease activity; P06935; WNV NS2B-NS3 protease, fluorogenic substrate Ex360/Em465; stronger effect = lower value; z-score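 (tested at a level between 10 and 100 µM)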; 65,000 tested, 0.18% active; AID 577;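 active means z-score at -3 or under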;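 further: score is relative to mean and spread of the compound wells of a plate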
Target sequence (P06935 1371-1501 limits assumed): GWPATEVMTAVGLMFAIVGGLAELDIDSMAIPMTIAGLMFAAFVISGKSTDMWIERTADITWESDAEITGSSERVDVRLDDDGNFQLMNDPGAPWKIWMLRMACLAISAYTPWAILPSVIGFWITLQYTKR
Target sequence (P06935 1502-1679 limits assumed): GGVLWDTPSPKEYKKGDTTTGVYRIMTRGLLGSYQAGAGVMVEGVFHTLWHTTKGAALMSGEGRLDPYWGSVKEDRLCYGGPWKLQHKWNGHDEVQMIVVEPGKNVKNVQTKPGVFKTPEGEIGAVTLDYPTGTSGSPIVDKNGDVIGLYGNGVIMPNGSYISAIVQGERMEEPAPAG
Hsc70 = Hsc70 inhibitors, probe displacement, primary screen, biochemical, fluorescence polarization (AID 568); Hsc70 fluorescence polarization, probe displacement; higher % means a stronger effect; strong numbers were not always called active; displacement, % at 20 µM, or IC50 in µM where a hit was titrated; 83,000 tested, under 10 active;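 active means displacement above 50% without optical interference and an IC50 on retest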;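 further: ATPase domain with a fluorescein-tagged ATP probe; 0% = vehicle and 100% = excess ADP; read after one hour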
* marks the source's active call; other numbers are inactive results; i = inactive; x = not tested or not shown; + = active, no number.

structure | MT1-MMP reporter | WNV protease inh | Hsc70
CCOC(=O)c1ccc(Nc2cc(C)nc(-c3ccccc3O)n2)cc1 | i | -0.69 | 4.6%
COc1ccc(NC(=O)CCS(=O)(=O)c2ccc(OC)cc2)cc1 | i | 0.16 | 2.4%
CCCNS(=O)(=O)c1ccc(OC)c(Cl)c1Cl | i | x | -1.4%
Cc1cccc(NC(=O)CCN2CC(C)OC(C)C2)c1 (stereo unspecified) | i | -0.59 | -2.0%
CCc1nn2cc(-c3ccccc3)nc2s1 | + | 0.34 | 6.3%
Cc1cc(C)n(-c2ccc(C(=O)OCC(=O)Nc3ccc(Cl)c(S(=O)(=O)N(C)C)c3)cc2)n1 | i | x | -1.6%
CCOC(=O)c1cccc(NC(=O)CCc2nc(-c3ccc(C)cc3)no2)c1 | i | 1.6 | 0.5%
CN(c1ccccc1C(=O)N1CCN(c2ccccc2)CC1)S(C)(=O)=O | i | x | 2.1%
CCOC(=O)CSc1nc2sc3c(c2c(=O)[nH]1)CC(C)(C)OC3 | i | -0.08 | -1.0%
CN(CC(=O)N1CCN(c2ccccn2)CC1)S(=O)(=O)c1cccc2nsnc12 | i | x | 4.3%
CCOC(=O)Cn1c(=O)oc2cc(S(=O)(=O)N(CCN(C)C)Cc3ccccc3)ccc21 | i | 0.69 | -6.4%
COc1cccc(C(=O)Nc2nnc(-c3ccc(Cl)cc3)o2)c1 | i | -0.23 | 2.4%
Nn1c(SCC(=O)Nc2ccc3c(c2)OCCO3)nnc1C(F)(F)F | i | -0.19 | 2.0%
O=C(CN1CCCCC1)Nc1ccc(S(=O)(=O)N2CCCCCC2)cc1 | i | 1.4 | 3.0%
N#Cc1c(NC(=O)c2ccc(Cn3cc(Br)cn3)o2)sc2c1CCCCC2 | i | x | 2.2%
COc1cc(Nc2cc(C)nc3ncnn23)cc(OC)c1OC | i | -0.29 | 4.9%
COc1ccc(C2C=C(c3cccs3)Nc3nc(CCCO)nn32)cc1 (stereo unspecified) | i | -0.89 | 141%
Cc1c(NC(=O)c2ccc(Cl)c(S(=O)(=O)N3CCOCC3)c2)c(=O)n(-c2ccccc2)n1C | i | 0.11 | 0.2%
CCOC(=O)CNS(=O)(=O)c1c(C)noc1C | i | -0.36 | 2.2%
COC(=O)C1=C(C)NC2=C(C(=O)CCC2)C1c1ccccn1 (stereo unspecified) | i | 0.74 | 6.6%
CCn1c(SCC(=O)Nc2cc(NC(C)=O)ccc2OC)nnc1-c1cccnc1 | i | -0.73 | -1.1%
C=CCNC(=O)COc1ccc(S(=O)(=O)NC2CCCCC2)cc1 | i | -0.61 | 11%
Cc1ccc(C(=O)Cn2c(C)cc(C)c(C#N)c2=O)cc1 | i | 0.33 | -1.0%
Cc1c(C(=O)OC2CCCC2)[nH]c2c1C(=O)CC(c1ccco1)C2 (stereo unspecified) | + | -0.2 | 3.0%
COc1cccc(/C(O)=C2/C(=O)C(=O)N(Cc3ccco3)C2c2ccncc2)c1 (stereo unspecified) | i | -0.66 | -1.8%

Record cards, from the list above.
O=C(CN1CCCCC1)Nc1ccc(S(=O)(=O)N2CCCCCC2)cc1 is listed with MT1-MMP reporter: i; WNV protease inh: 1.4; Hsc70: 3.0%
COC(=O)C1=C(C)NC2=C(C(=O)CCC2)C1c1ccccn1 (stereo unspecified) is listed with MT1-MMP reporter: i; WNV protease inh: 0.74; Hsc70: 6.6%

Other entries follow.
structure | MT1-MMP reporter | WNV protease inh | Hsc70
O=C(Nc1nc2ccccc2[nH]1)c1ccc(F)cc1 | + | 0.84 | 1.3%
COc1ccc(NC(=O)CN2CCN(S(=O)(=O)c3ccc(F)cc3)CC2)cc1Cl | i | -0.11 | -4.9%
CSc1ccccc1NC(=O)C1CC(c2ccccc2O)=NO1 (stereo unspecified) | i | -0.08 | -4.2%
O=C(NCCN1CCCCC1)c1ccco1 | i | x | -0.2%
COc1ccccc1-n1cnnc1SCC(=O)NCc1cccs1 | i | x | -1.3%
CCCCOc1ccc(C(=O)Nc2ccc(N3CCN(C(C)=O)CC3)cc2)cc1 | i | -0.51 | 8.3%
CCN(CC)c1ccc(Nc2nc(N3CCOCC3)c3ccccc3n2)cc1 | i | x | 1.2%
CCCS(=O)(=O)N1CCn2c(nc3ccccc32)C1 | i | -0.34 | 6.1%
Cc1nnc(N2CCN(c3ccccc3)CC2)c2nn(-c3ccccc3F)c(C)c12 | i | x | 3.6%
Nc1nc(C(=O)N2CCOCC2)nn1S(=O)(=O)c1ccccc1 | i | -1.4 | -5.4%
COCCn1nnnc1SCC(=O)c1ccccc1 | i | 1.2 | 6.3%
Cn1c(=O)oc2cc(S(=O)(=O)N3CCCC(C(=O)NCc4ccc5c(c4)OCO5)C3)ccc21 (stereo unspecified) | i | 0.91 | -1.0%
CC(c1ccccc1)n1cnc2ccccc21 (stereo unspecified) | i | -0.09 | -0.7%
CC(C)Oc1cccc(C(=O)Nc2ccc(CN3CCOCC3)cc2)c1 | i | -0.7 | -0.3%
COC(=O)C(O)(CC(=O)Nc1ccc(Cl)cc1F)C(F)(F)F (stereo unspecified) | i | -1.8 | 3.0%
COc1ccccc1C(=O)Nc1ccccc1N1CCOCC1 | i | x | 2.7%
O=C(Nc1ccc2c(c1)OCCO2)c1cccnc1 | i | 0.29 | 0.2%
Cc1cnc(NC(=O)CSc2nnc(COc3c(C)cccc3C)o2)s1 | i | 1.1 | 1.6%
COc1ccccc1N1CCN(C(=O)c2cc3c(-c4ccc(Cl)cc4)nn(C)c3s2)CC1 | i | -0.57 | -0.5%
CC(C(=O)Nc1ccc2c(c1)OCO2)N(c1ccc(Cl)cc1)S(C)(=O)=O (stereo unspecified) | i | 1.4 | -1.8%
CCC(C)[C@H](NC(=O)NCc1ccc(Cl)cc1)C(=O)OC (stereo partly specified) | i | -0.08 | 2.1%
CCOC(=O)COc1ccc(S(=O)(=O)Nc2ccc(C)cc2)cc1 | i | x | 1.5%
CCc1c(C)nc2cc(-c3cc(OC)cc(OC)c3)nn2c1N1CCCC1 | i | -0.69 | 1.9%
COc1cccc(C(C(=O)NC2CCCCC2)N(C(=O)c2ccco2)c2ccc(-n3cnnn3)c(C)c2)c1 (stereo unspecified) | i | x | 8.0%
N#CC1=C(N)C(C#N)(C#N)[C@H](c2ccncc2)[C@H]2CN(C(=O)OCc3ccccc3)CC=C12 | i | 0.3 | 4.8%
CC(C)OC(=O)c1ccc(OC(=O)c2cccnc2)cc1 | i | -0.71 | -5.1%
COc1ccccc1N1CCN(C(=O)CCc2ccc(S(=O)(=O)NC(C)C)cc2)CC1 | i | -0.65 | -3.6%
S=c1[nH]nc(-c2ccco2)n1Cc1ccccc1 | i | -0.19 | 5.8%
Cc1cc(-c2ccccc2)n2nc(C)c(C#N)c2n1 | i | x | 5.3%
N#Cc1ccc(-c2cccnc2)nc1SCC(=O)Nc1sc2c(c1C#N)CCC2 | i | -1.3 | -17%
COc1cc2nc(SCc3c(C)noc3C)n(CCC3=CCCCC3)c(=O)c2cc1OC | i | -0.97 | -0.6%
Cc1cc(C)nc(SCC(=O)Nc2sc3c(c2C#N)CCC(C)C3)n1 (stereo unspecified) | i | x | 4.4%
CCCC(OC(=O)CC1Sc2ccccc2NC1=O)C(=O)NCc1ccco1 (stereo unspecified) | i | 1.3 | 5.0%
COc1ccc(NC(=O)N2CCCCC2)cc1 | i | 0.03 | 2.4%
O=C(O)CN(c1ccccn1)S(=O)(=O)c1ccccc1 | i | x | 4.0%
CCOC(=O)CN1C(=O)c2ccccc2C1=O | i | -0.56 | -5.2%
CC(NCc1ccc2c(c1)OCO2)C(=O)NC1CCCc2ccccc21 (stereo unspecified) | i | x | -5.1%
Nc1nnc(SCC(=O)c2ccccc2)s1 | i | 0.24 | 5.3%
O=C(CSc1nnc2scc(-c3ccccc3)n12)NCc1ccc2c(c1)OCO2 | i | 0.9 | -4.1%
CCOC(=O)CSc1nc2ccc(C)cc2[nH]1 | i | x | -1.1%
CC1=CC2=C(OC1N(C)C)c1cccc3cccc(c13)C2=O (stereo unspecified) | i | -0.32 | 8.2%
Clc1ccc(NCc2nncn2-c2ccccc2)cc1 | i | -0.67 | -1.1%
CCOCCCNC(=O)c1ccc(OC(C)=O)cc1 | i | 0.42 | -1.5%
CCOc1ccc(-c2nnn(CC(=O)c3ccc4c(c3)OCCO4)n2)cc1 | i | 2 | -1.5%
CCCC1C(c2ccccc2)C(C#N)(C#N)C2(C#N)CC1(N)NC2=O (stereo unspecified) | i | 0.19 | 5.6%
COc1cc(C(=O)Nc2nc(N)n(-c3ccccc3)n2)cc(OC)c1OC | i | -0.47 | 11%
CC1CCN(c2nc3ccccc3nc2C(C#N)C(=O)OC2CCCCC2)CC1 (stereo unspecified) | i | -0.37 | -97%
Cc1cccc(C(=O)Oc2csc(=S)n2C(=O)c2cccc(C)c2)c1 | i | x | -3.2%
CC(=O)c1cccc(NC(=O)CN(c2ccccc2F)S(C)(=O)=O)c1 | i | x | -4.0%
CCOC(=O)c1c(N)n(C2CC(C)(C)NC(C)(C)C2)c2nc3ccccc3nc12 | i | x | -0.4%

(listing goes on)
structure | MT1-MMP reporter | WNV protease inh | Hsc70
CCOc1ccccc1NC(=O)C1CC(=O)n2ncnc2N1 (stereo unspecified) | i | x | 0.1%
CCCN(CCC)C(C(=O)Nc1cccc(OC)c1)c1ccccc1 (stereo unspecified) | i | -0.66 | -5.2%
COc1ccc(SCC(=O)c2cc(C)c(OC(=S)N(C)C)c(C)c2)cc1 | i | x | -2.9%
CC(C(=O)NC1=NCCS1)N1C(=O)c2ccccc2C1=O (stereo unspecified) | i | -0.27 | 0.6%
COc1ccc(N2CC(C(=O)O)CC2=O)cc1 (stereo unspecified) | i | x | 8.3%
CCN(CC)c1ccc2cc(C(=O)O)c(=O)oc2c1 | i | 0.13 | -30%
O=C(Nc1cccnc1)c1noc2c1CCCCC2 | i | 1.7 | 5.7%
COc1ccc(CCN2C(=O)C3CC=C(C)CC3C2=O)cc1OC (stereo unspecified) | i | x | 7.2%
CCOc1cc(N2CCOCC2)c(OCC)cc1NC(=O)COC(=O)c1cc(C)oc1C | i | -1.2 | 7.2%
COc1ccccc1NC(=O)CSc1nnc(Cn2nnc(-c3ccccc3)n2)n1-c1ccccc1 | i | -0.56 | 1.7%
COc1ccc(-c2nc(C#N)c(N3CCN(c4cccc(Cl)c4)CC3)o2)cc1OC | i | -1.1 | -3.1%
Cc1nc2c(oc3ccccc32)c(=O)o1 | i | 0.09 | 1.8%
CN(C)CCOc1ncnc2c1oc1ccccc12 | i | x | -1.7%
CC(=O)NC(c1ccco1)c1ccc2cccnc2c1O (stereo unspecified) | i | 3.1 | 24%
CC1(C)N=C(c2ccc(Cl)cc2Cl)C(=O)N1 | i | 1.3 | 0.1%
COCCCn1cnc2c(c1=O)c1nc3ccccc3nc1n2-c1ccccc1 | i | -0.22 | -5.9%
COC(=O)c1ccccc1NC(=O)c1noc2c1CCCC2 | i | -1.4 | -9.3%
Cc1ccc(-n2c(C)nc3c(cnn3-c3ccc(F)cc3)c2=O)cc1 | i | 1.3 | -6.0%
CCOC(=O)N1CCC(N(CCOC)C(=O)Nc2ccc(CC)cc2)CC1 | i | -0.81 | 1.4%
CCOC(=O)c1[nH]c(C)c(C(=O)Nc2ccc3c(c2)OCCO3)c1C | i | 0.11 | -0.2%
C[C@H](Nc1ncnc2sc3c(c12)CCC3)C(=O)O | i | x | 5.3%
CC(C)CNC(=O)c1ccc(Cl)c(Cl)c1 | i | x | -2.4%
CCCCn1c(SCC(N)=O)nnc1-c1ccco1 | i | -0.13 | 0.7%
Cc1ccc(C(=O)O/N=C/C2=C(Cl)c3ccccc3CC2)cc1 | i | x | 3.5%
CCCCOc1ccc(/C(O)=C2/C(=O)C(=O)N(CCCOC)C2c2ccncc2)cc1C (stereo unspecified) | i | 0.99 | -0.6%
CCOC(=O)CSc1nc(C)c2cc(OC)ccc2n1 | i | 1.3 | -2.4%
Cc1ccnc(SCC(=O)Nc2sc3c(c2C#N)CCCC3)n1 | i | 0.72 | 3.4%
O=C(NCc1ccccn1)C(C(=O)c1ccc(F)cc1)n1ccccc1=O (stereo unspecified) | i | -0.88 | -5.6%
COC(=O)c1ccc(NC(=O)CN(c2ccc(OC)cc2)S(C)(=O)=O)cc1 | i | 0.39 | -0.3%
COc1ccc(N2CCN(c3oc(COc4ccccc4Cl)nc3C#N)CC2)cc1 | i | -0.69 | 3.9%
CCOC(=O)Cc1csc(NC(=O)CCc2ccc(S(=O)(=O)N3CCOCC3)cc2)n1 | i | -0.83 | 15%
COc1cc(C(=O)Nc2ccccn2)cc(OC)c1OC | i | 0.76 | 4.0%
Fc1ccccc1Cn1nnc2c(-n3ccnc3)ncnc21 | i | -0.17 | -1.1%

3 compounds picked at random from those above, as already listed:
structure | MT1-MMP reporter | WNV protease inh | Hsc70
CCOC(=O)Cc1csc(NC(=O)CCc2ccc(S(=O)(=O)N3CCOCC3)cc2)n1 | i | -0.83 | 15%
Fc1ccccc1Cn1nnc2c(-n3ccnc3)ncnc21 | i | -0.17 | -1.1%
COC(=O)c1ccc(NC(=O)CN(c2ccc(OC)cc2)S(C)(=O)=O)cc1 | i | 0.39 | -0.3%

The list is partial; rates above refer to the full screens.
